Screening data as filed in PubChem.
VDR inhibitor – Inhibitors of the vitamin D receptor (VDR): qHTS | Vitamin D3 receptor (Homo sapiens), P11473 | VDR-SRC2-3 peptide fluorescence polarization, 2 h | Potency, µM, inactives show max response, negative = inhibition, hits mostly inhibitors | 0.93% of 400,000 active; active = well fitted inhibition curve with a large enough effect; inconclusive = small, poorly fitted or top-dose-only effect, or another doubt; inactive = no such curve, though single readings can be large or run the other way; also: series mostly up to about 120 µM
Target sequence (P11473 whole entry, looked up): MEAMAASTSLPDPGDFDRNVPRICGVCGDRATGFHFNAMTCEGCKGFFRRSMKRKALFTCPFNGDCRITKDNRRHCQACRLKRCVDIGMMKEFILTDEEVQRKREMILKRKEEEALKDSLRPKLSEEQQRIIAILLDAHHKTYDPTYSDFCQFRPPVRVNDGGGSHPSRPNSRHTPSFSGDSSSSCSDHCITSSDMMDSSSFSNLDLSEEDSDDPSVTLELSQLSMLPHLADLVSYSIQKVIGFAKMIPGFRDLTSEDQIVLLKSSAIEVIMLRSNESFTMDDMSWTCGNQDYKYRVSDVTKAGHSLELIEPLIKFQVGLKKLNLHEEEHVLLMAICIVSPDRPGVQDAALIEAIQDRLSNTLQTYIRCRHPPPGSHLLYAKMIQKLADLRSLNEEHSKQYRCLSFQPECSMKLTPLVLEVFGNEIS
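Compounds are added to VDR with labelled SRC2-3 coactivator peptide and held 2 h at room temperature. Inhibition of the VDR–peptide interaction is then read as a change in fluorescence polarization.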
Numbers without * were called inactive; u = inconclusive; & = joins results of further samples; ! = not confirmed by another sample; [ ] = dose if it differs, or a comment. % is scaled to controls: 0 for no effect and ±100 for the full control effect; potency is read from the fitted curve at half-maximal effect. These rows are one share of the data, so the mix of outcomes need not match the whole.

structure	VDR inhibitor
COc1cc2c(cc1OC)C1(NCC2)C(=O)Nc2ccccc21 (configuration not stated)	-16%
CC(=O)Cn1cnc2scc(-c3ccc(C)c(C)c3)c2c1=O	-21%
Nn1c(SCC(=O)Nc2ccc(F)c(F)c2)nnc1C1CCCCC1	4%
Cc1cccc(C)c1OCC1CNC(=O)O1 (configuration not stated)	-13%
CCCOc1ccc(C(=O)N(Cc2ccc(Cl)cc2)Cc2ccco2)cc1	0%
O=[N+]([O-])c1ccc(C[n+]2cc(-c3ccc(Cl)c(Cl)c3)n3c2CCCCC3)cc1	-8%
Cc1ccc(C2(C)NC(=O)N(CC(=O)N3CCN(S(=O)(=O)c4cccs4)CC3)C2=O)cc1 (configuration not stated)	-13%
CCOC(=O)/C(C#N)=C\c1ccc2c(c1)OCO2	7%
COCCOC(=O)C1=C(C)NC2=C(C(=O)CC(C)(C)C2)C1c1cc2c(cc1Br)OCO2 (configuration not stated)	-8%
Cc1ccc(S(=O)(=O)NCc2nc3ccccc3[nH]2)cc1	-21%
COc1cc(OC)c(NC(=O)Cn2cccc2)cc1Cl	5%
CN1CCN(C(=O)C2CCC(=O)N(Cc3cccc(C(F)(F)F)c3)C2)CC1 (configuration not stated)	-21%
CCc1cc2c(=O)[nH]c(-c3ccncc3)nc2s1	-26%
CCN1CCN(c2nc(Nc3ccc(C)c(C)c3)nc(N)c2[N+](=O)[O-])CC1	3%
CNC(=O)c1c(NC(=O)CCS(=O)(=O)c2ccc(F)cc2)sc(C)c1C	-14%
O=C(Nc1cccc(C(F)(F)F)c1)C1(c2ccccc2)CC1	-7%
CC1(C)N([O-])C(c2ccccc2)=C[N+](=O)C1(C)C	-18%
O=C(CCc1nc2ccccc2c(=O)[nH]1)OCc1nnc(-c2ccccc2)o1	-16%
CSCc1ccc(C(=O)NCc2ccc(C)cc2)cc1	-11%
N/C(=N\NS(=O)(=O)c1ccccc1C(F)(F)F)c1ccccn1	0%
CCc1nnc(NC(=O)c2ccc(-c3cccc(C(F)(F)F)c3)o2)s1	5%
CCOC(=O)Cn1c(=O)n(CC2CCCO2)c2nc(-c3ccc(OC)cc3OC)nc(C(N)=O)c21 (configuration not stated)	17%
Cn1cnnc1SCC(=O)Nc1ccc(Br)cc1F	2%
Cn1ccnc1SCC(=O)c1c(N)n(C)c(=O)n(C)c1=O	0%
CCN1C(=O)C(C)S/C1=N\S(=O)(=O)c1ccc(F)cc1 (configuration not stated)	-5%
O=c1[nH]c2ccccc2cc1-c1noc(-c2cccnc2)n1	-5%
COc1ccc2c(c1)c1c(c(=O)n(Cc3ccccc3)c(=O)n1Cc1cc(C)ccc1C)n2C	2%
Clc1ccc(OCCN2CCOCC2)cc1	0%
C=CCSc1ncccc1C(=O)NCCc1ccc(Cl)cc1	-19%
CC(C)c1ccc(/C=C/c2[nH]c(=O)[nH]c(=O)c2[N+](=O)[O-])cc1	22µM*

A different layout for three compounds above.
VDR inhibitor,canonical_smiles
-16%,O=C(CCc1nc2ccccc2c(=O)[nH]1)OCc1nnc(-c2ccccc2)o1
-11%,CSCc1ccc(C(=O)NCc2ccc(C)cc2)cc1
0%,N/C(=N\NS(=O)(=O)c1ccccc1C(F)(F)F)c1ccccn1

Later entries
structure	VDR inhibitor
O=C(Cc1ccccc1)Nc1nnc(-c2ccco2)o1	5%
Cc1cc(C)cc(N2C(=O)CSC23C(=O)N(CC(=O)NCCc2ccccc2)c2ccccc23)c1 (configuration not stated)	-2%
COC(=O)c1ccc(CNC(=O)CCC(=O)N2CCOCC2)cc1	-18%
COCOc1ccc(OC)cc1C(=O)/C=C/c1ccc(OC)c(Br)c1	40µM*
COc1ccccc1NC(=O)Nc1ccc(C(N)=O)cc1	-1%
O=C1CC(C(F)(F)C(F)(F)C(F)(F)F)=Nc2ccccc2N1	-7%
CCCNC(=O)c1cc(S(=O)(=O)N2CCc3ccccc32)cn1C	0%
O=C(CCNC(=O)N1CC(=O)Nc2ccccc21)NCc1cccc(Cl)c1	-3%
O=C(OCC1CCCO1)c1ccc2c(c1)N(Cc1ccccc1Cl)C(=O)c1ccccc1S2(=O)=O (configuration not stated)	14%
Cc1csc(NC(=O)CSc2nnc(CCNC(=O)c3ccc(Cl)c(Cl)c3)n2C)n1	4%
Cc1ccc(-n2nc(C)c3c(C)c(CCC(=O)NCc4ccco4)c(C)nc32)cc1	15%
Cc1ccc(/C=N/NC(=O)c2nnn(-c3nonc3N)c2CNc2ccccc2)cc1	u
O=C(Oc1ccc(C(=S)N2CCOCC2)cc1)c1ccccc1	5%
O=C(O)C1CCCCC1C(=O)Nc1cccc(Cl)c1Cl (configuration not stated)	-4%
Cc1ccc(NC(=O)COC(=O)Cn2cnc3c2c(=O)n(C)c(=O)n3C)cc1	2%
COc1ccc(N(C(=O)CCl)C(C(=O)NCCc2ccccc2)c2cccs2)cc1Cl (configuration not stated)	u
CN(C)S(=O)(=O)c1ccc(C(=O)Nc2ccc(-n3nncc3-c3ccccc3)cc2)cc1	-1%
Clc1ccc(-c2ccc(SCc3ccccn3)nn2)cc1	5%
Cc1cc(C)nc(/N=C(\N)N(Cc2ccccc2)Cc2ccccc2)n1	-9%
CCC(=O)NCCCc1nc2ccccc2n1Cc1ccccc1F	-15%
COc1cccc(CCNC(=O)CC2C(=O)NCCN2CC(C)(C)C)c1 (configuration not stated)	5%
CCOc1ccc(-n2ccnc2SCC(=O)Nc2nc3ccc(C)cc3s2)cc1	5%
CCN(CC)C(=O)C(=O)Nc1cccc(Br)c1	-4%
O=C(CNC(=O)c1cccc(S(=O)(=O)N2CCc3ccccc32)c1)Nc1ccccc1Br	-16%
COc1ccc(CNC(=O)COC(=O)c2ccc3ccccc3n2)cc1	-4%
Cc1sc2ncnc(NCCCO)c2c1C	9%
Cc1ccc(N(C(=O)c2ccc(S(=O)(=O)N(C)C)cc2)C2C=CS(=O)(=O)C2)cc1 (configuration not stated)	2%
CCOc1ccc(C(=S)N2CCOCC2)cc1OC	16%
CCOC(=O)C1(CCCc2ccccc2)CCN(S(C)(=O)=O)CC1	-8%
CC(C)Oc1ccc(C(CCN)C2CCCCC2)cc1 (configuration not stated)	-4%

2 successive records already listed, for reference:
structure	VDR inhibitor
O=C(Cc1ccccc1)Nc1nnc(-c2ccco2)o1	5%
Cc1cc(C)cc(N2C(=O)CSC23C(=O)N(CC(=O)NCCc2ccccc2)c2ccccc23)c1 (configuration not stated)	-2%

(more compounds)
Structure,VDR inhibitor
CCOc1ccc(NC(=O)CN2CCN(S(=O)(=O)c3ccc(Cl)cc3)CC2)cc1,-14%
CCOc1cc(C(=O)NCc2ccc3c(c2)OCO3)cc(OCC)c1OCC,28%
Cc1nc(N=Nc2cc(S(=O)(=O)O)c3cc([N+](=O)[O-])cc(S(=O)(=O)O)c3c2)c(COP(=O)(O)O)c(C=O)c1O,40µM*!
COc1ccccc1OCCNC(=O)c1cccc(S(=O)(=O)N2CCN(Cc3ccccc3)CC2)c1,20%
O=C1c2cccc3cccc(c23)C(=O)N1CCN1CCN(CC(O)COc2ccccc2)CC1 (configuration not stated),-1%
O=C(O)c1c(CNCc2cccc(F)c2)c2ccccc2n1Cc1ccccc1,-2%
O=C1N/C(=N/NC(=O)c2cccc3ccccc23)S/C1=C\c1ccccc1OCc1ccccc1,-4%
CC1CN(S(=O)(=O)c2cccc(C(=O)OCc3cc(=O)oc4cc(O)ccc34)c2)CC(C)O1 (configuration not stated),12%
CCOC(=O)c1[nH]cnc1C(=O)O,0%
COCCNC(=O)c1cn(C)c(=O)c2cc(OC)c(OC)cc12,-1%
CCOc1ccc(CCNC(=O)CCNC(=O)c2ccccc2Cl)cc1OCC,-11%
CC1(C)CC(=O)C=C(c2cccc(Cl)c2O)C1,-16%
CN(C)c1ccc(NC(=O)C2(c3cccs3)CCOCC2)cc1,3%
Cc1ccc(CSCC(=O)N2CCN(c3ccccc3F)CC2)cc1,-4%
CC(C)n1c2ccccc2c2nc3ccccc3nc21,-17%
CC(C)(C)c1cc(C(=S)N2CCCC2)cc(C(C)(C)C)c1O,u
Cn1c(C(=O)N2CCN(c3nc4ccccc4s3)CC2)cc2sccc21,2%
N#Cc1c(-c2ccccc2)nc(SCc2cccc(Cl)c2)[nH]c1=O,-9%
CCOc1cc(CN2CCC(CO)(Cc3cccc(C(F)(F)F)c3)CC2)ccc1OC,11%
CCN1C(=O)C(NC(C)=O)c2cc(OC)ccc21 (configuration not stated),-12%
COCC(=O)N1CCCc2ccccc21,8%
C=CCOc1cccc(C(=O)N2CCC(CCC(=O)NC3CC3)CC2)c1,1%
Cn1nc(C(=O)NNC(=O)c2ccccc2Br)c2ccccc2c1=O,-9%
Cc1[nH]n(-c2ncc(-c3ccc(Cl)cc3)s2)c(=O)c1C(c1ccc(Cl)cc1)C(C#N)C#N (configuration not stated),50µM*
CCCC(=O)Nc1ccc(NC(=O)c2ccco2)cn1,-1%

In the list so far, six have bromine.
Structure,VDR inhibitor
COCCOC(=O)C1=C(C)NC2=C(C(=O)CC(C)(C)C2)C1c1cc2c(cc1Br)OCO2 (configuration not stated),-8%
Cn1cnnc1SCC(=O)Nc1ccc(Br)cc1F,2%
COCOc1ccc(OC)cc1C(=O)/C=C/c1ccc(OC)c(Br)c1,40µM*
CCN(CC)C(=O)C(=O)Nc1cccc(Br)c1,-4%
O=C(CNC(=O)c1cccc(S(=O)(=O)N2CCc3ccccc32)c1)Nc1ccccc1Br,-16%
Cn1nc(C(=O)NNC(=O)c2ccccc2Br)c2ccccc2c1=O,-9%

Next section:
Structure,VDR inhibitor
O=C1CSC(c2cn(-c3ccccc3)nc2-c2cc3ccccc3o2)N1Cc1ccccc1 (configuration not stated),4%
CCOc1ccc(C2CC(c3ccc(OC)cc3)n3ncnc3N2)cc1 (configuration not stated),-14%
COc1cccc(/C(O)=C2/C(=O)C(=O)N(CCN3CCOCC3)C2c2cccnc2)c1 (configuration not stated),18%
O=C(N1CCOCC1)N1CCN(S(=O)(=O)N2CCOCC2)CC1,25%
COc1cccc(/C=C/C(=C2/C(=O)N(c3ccccc3)N=C2C)c2ccccc2)c1OC,2%
CCCCN(C(=O)c1ccncc1)c1c(N)n(CCC)c(=O)[nH]c1=O,-2%
C#CCOC(=O)C[N+](C)(C)C/C=C/c1ccccc1,-11%
O=C(Cn1ccc2ccccc2c1=O)NCC(=O)N1CCN(c2ccccc2F)CC1,4%
CC(=O)NC(CC(C)C)C(=O)NC(Cc1ccccc1)C(=O)CCl (configuration not stated),u
CC(=O)N1CCCc2cc(S(=O)(=O)N3CCCC(C(=O)NCc4ccccc4Cl)C3)ccc21 (configuration not stated),45%&13%[activator]
CC(C)C[C@H](NC(=O)[C@H](CCCCN)NC(=O)[C@H](CCCNC(=N)N)NC(=O)[C@H](C)NC(=O)[C@H](CO)NC(=O)[C@H](CCCCN)NC(=O)[C@H](CCCNC(=N)N)NC(=O)[C@H](C)NC(=O)CNC(=O)[C@@H](NC(=O)[C@H](Cc1ccccc1)NC(=O)CNC(=O)CNC(=O)[C@@H](N)Cc1ccccc1)[C@@H](C)O)C(=O)N[C@@H](C)C(=O)N[C@@H](CC(N)=O)C(=O)N[C@@H](CCC(N)=O)C(=O)O,5%
Cc1ccc2nc(-c3ccc(Cl)c(NC(=O)c4cccc([N+](=O)[O-])c4C)c3)oc2c1,0%
COc1ccccc1C(=O)NCC(=O)OCCCOC(=O)CNC(=O)c1ccccc1OC,0%
Cc1cccc(CC2CC(=O)N(c3ncccn3)C2=O)c1 (configuration not stated),3%
CCn1c(=O)n(CCOC)c(=O)c2c3c(sc21)CCCC3,2%
CCOCCCNC(=O)N1CCN(S(=O)(=O)c2ccc3c(ccn3C)c2)CC1,7%
COc1ccc(N2C(=O)N[C@@H](Cc3ccccc3)C2=O)cc1OC,-11%
O=C(N/N=C/c1ccc[nH]1)c1ccc(Cl)cc1,-14%
O=C(/C=C/c1ccc(Cl)cc1)OCC(=O)c1ccc[nH]1,0%
CSc1cccc(NC(=O)Cn2nc(C)c3sc4ccccc4c3c2=O)c1,15%
CCN(CC(=O)NCc1cccs1)S(=O)(=O)c1ccccc1Cl,-22%
CC1(C)CC(NS(=O)(=O)c2ccc3ccccc3c2)CC(C)(C)N1,3%
CCC(C)n1c(SCC(=O)NC2CCS(=O)(=O)C2)nc2ccccc2c1=O (configuration not stated),-9%
COc1ccc(N=C2S/C(=C\c3ccc(OCC(=O)O)cc3)C(=O)N2CCc2c[nH]c3ccccc23)cc1,-9%
CN(C)S(=O)(=O)c1ccc(C(=O)Nc2cc(S(=O)(=O)Nc3ccccc3Cl)ccc2N2CCCCC2)cc1,-5%

Additional structures follow.
Structure,VDR inhibitor
CS(=O)(=O)CC[C@@H](C(=O)NCCc1ccccc1)N1Cc2ccccc2C1=O,-7%
CCCCOc1cccc(C(=O)Nc2ccccc2N2CCCC2)c1,5%
Cc1cc(=O)c2c(o1)C(=O)c1occc1C2=O,u
O=S(=O)(Nc1ccc2ccccc2c1)c1ccccc1,-5%
Cc1noc(C(=O)N(C)c2ccccc2)c1Cl,-3%
CCN1CCN(c2cc(C)c3cc(NC(=O)CCC(=O)N4CCN(c5ccccc5)CC4)ccc3n2)CC1,7%
Cc1ccc([N+](=O)[O-])cc1NC(=O)C(Sc1ccccc1)c1ccccc1 (configuration not stated),2%
CCOC(=O)CCCCC1C(CCCC(=O)OCC)C=NN1C (configuration not stated),2%
CCOC(=O)CNC(=O)N1CCN(c2nnc(C)c3c(C)n(-c4ccc(Cl)cc4)nc23)CC1,14%
Cc1ccccc1N1CCN(C2=NC(=O)/C(=C/c3cn[nH]c3-c3ccccc3)S2)CC1,-14%
